Screening data from PubChem BioAssay.
MARV entry inh: inhibitors of Marburg virus binding or cell entry; Marburg virus pseudotyped entry inhibition, cell reporter; control for the full effect not named in the record; about a third of the inactives were read at about 46 µM; Potency, µM (highest dose often 37.8 µM), for the others: top-dose activity change, negative = inhibition, usual class: inhibitors; 1.8% of 300,000 active; AID 540276; active = well fitted inhibition curve with a large enough effect; inconclusive = small, poorly fitted or top-dose-only effect, or effect the other way; inactive = flat fitted curve, though single readings scatter; tested in HEK293 cells; about a fifth of its hits are not listed in these tables; note: % is set by controls: 0 for no effect and ±100 for the full control effect; luciferase read-out
SARS PLpro yeast: SARS-CoV PLP inhibition in yeast; S. cerevisiae expressing SARS-CoV PLpro, growth rescue; control for the full effect not named in the record; Potency, µM (doses to about 32.9 µM), for the others: at the highest dose activity, positive = growth rescue; 0.19% of 330,000 active; note: 0% is about no effect; nearly all actives have a fitted effect of over 55% in size; growth read by luminescence after 48 h
2A StopGo: lowers the luciferase signal of an FMDV 2A StopGo reporter; human cells with a luciferase reporter of 2A StopGo recoding; control for the full effect not named in the record; Potency, µM (series often up to 57.9 µM), inactives show at the top dose signal change, negative = less light; 1.2% of 410,000 active; AID 1159524; active = well fitted falling curve with a large enough effect; inconclusive = small, poorly fitted or top-dose-only effect; inactive = no such curve, though single readings can be large or run the other way; tested in HEK293T cells; note: % is set by controls: 0 for no effect and ±100 for the full control effect; nearly all actives have a fitted effect of over 45% in size; luciferase light after 4 h
Cruzain inh Det: inhibitors of Trypanosoma cruzi cruzain with detergent; P25779; purified cruzain, Z-FR-AMC fluorescence, 0.01% Triton; Potency, µM, for inactives: max response, negative = inhibition, actives largely listed as inhibitors; 0.43% of 200,000 active; AID 1478; active = well fitted curve in the direction sought with a large enough effect; inconclusive = small, poorly fitted or top-dose-only effect, or another doubt; inactive = no such curve, though single readings can be large; an effect the other way counts as inactive or inconclusive;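 note: plate controls were neutral wells for no effect and buffer without enzyme for full effect; nearly all actives have a fitted effect of over 40% in size; top concentration of the series not given in the record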
Target sequence (P25779 123-467 limits assumed): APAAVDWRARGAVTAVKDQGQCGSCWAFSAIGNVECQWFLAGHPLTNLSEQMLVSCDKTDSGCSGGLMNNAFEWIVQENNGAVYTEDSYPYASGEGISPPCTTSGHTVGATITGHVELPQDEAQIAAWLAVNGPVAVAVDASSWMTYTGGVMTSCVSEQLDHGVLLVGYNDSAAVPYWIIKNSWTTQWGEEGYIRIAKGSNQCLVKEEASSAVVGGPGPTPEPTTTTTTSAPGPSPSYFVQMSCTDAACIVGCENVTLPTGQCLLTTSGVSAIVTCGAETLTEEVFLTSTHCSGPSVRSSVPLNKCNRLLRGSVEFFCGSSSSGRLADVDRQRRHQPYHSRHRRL
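Enzyme 1.5 nM, Z-FR-AMC 2 uM, NaOAc 100 mM pH 5.5, DTT 5 mM, Triton X-100 0.01%; 15 min RT compound preincubation; kinetic ex360/em450, 60 s delta.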
Cruzain inh noDet: cruzain (T. cruzi) inhibition without detergent. P25779. Potency, µM, without a hit: max response, negative = inhibition, actives largely listed as inhibitors. purified cruzain, Z-FR-AMC fluorescence, no detergent. 2.3% of 200,000 active; active = well fitted curve in the direction sought with a large enough effect; inconclusive = small, poorly fitted or top-dose-only effect, or another doubt; inactive = no such curve, though single readings can be large; an effect the other way counts as inactive or inconclusive;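 note: plate controls were enzyme without inhibitor for no effect and buffer without enzyme for full effect; nearly all actives have a fitted effect of over 40% in size; top concentration of the series not given in the record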
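Detergent-free condition (0.00005% Triton X-100) in acetate buffer pH 5.5 with DTT. 1.5 nM enzyme and compound were pre-mixed 15 min, then 2 uM Z-FR-AMC substrate added; reaction progress from fluorescence change between first and third reads (60 s).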
Lassa entry inh: inhibitors of Lassa virus binding or cell entry; Lassa virus pseudotype entry inhibition, cell reporter; control for the full effect not named in the record; Potency, µM (series often up to 37.9 µM), for inactives: at the highest dose activity change, negative = inhibition, usual class: inhibitors; 1.2% of 300,000 active; AID 540256; active means well fitted inhibition curve with a large enough effect; inconclusive means small, poorly fitted or top-dose-only effect, or effect the other way; inactive means flat fitted curve, though single readings scatter; tested in HEK293 cells; note: % is set by controls: 0 for no effect and ±100 for the full control effect; nearly all actives have a fitted effect of over 50% in size; luciferase read-out
NS1 inh: blocks influenza NS1 protein function. S. cerevisiae slowed by influenza A NS1, growth recovery by OD600. Potency, µM (series often up to 46.1 µM), without a hit: at the highest dose activity, positive = more growth. 0.4% of 270,000 active; note: actives are rising curves; nearly all actives have a fitted effect of over 50% in size
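Compounds were scored for reversing the slow growth caused by influenza A NS1 in S. cerevisiae, measured by optical density at 600 nm. Assay medium contained 2% galactose at pH 6.0; NS1-free yeast of the same strain were the positive control.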
RE007 growth inh: less growth of the S. pombe RE007 Vpr strain; AID 651644; S. pombe RE007 Vpr strain, BacTiter-Glo ATP luminescence, 24 h; control for the full effect not named in the record; 0.21% of 360,000 active; Potency, µM (highest dose often 92.2 µM), for inactives: at the top dose activity change, negative = less growth; active = well fitted falling curve with a large enough effect; inconclusive = small, poorly fitted or top-dose-only effect; inactive = no such curve, though single readings can be large or run the other way;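 note: % is set by controls: 0 for no effect and ±100 for the full control effect; nearly all actives have a fitted effect of over 50% in size; the assay follows cell death caused by Vpr and the record does not say whether a fall means rescue or toxicity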
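Fission yeast strain RE007, carrying one chromosomally integrated HIV-1 vpr copy, was seeded at OD 0.01 in PMG+AL medium with 23 nL pinned compound. After 24 h at 30 °C and 99% humidity, viability was read by BacTiter-Glo luminescence.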
* hit, by the source's call; ? = inconclusive; · = not tested or not shown; [ ] = remark or other dose. Unless noted, calls come from the whole dose curve; as a rule, active means well fitted rising curve with a large enough effect; inconclusive means small, poorly fitted or top-dose-only effect; inactive means no such curve, though single readings can be large or run the other way. Potency is the fitted concentration of half-maximal effect.

Structure	MARV entry inh	SARS PLpro yeast	2A StopGo	Cruzain inh Det	Cruzain inh noDet	Lassa entry inh	NS1 inh	RE007 growth inh
Cc1cc(C)c(NC(=O)CN2C(=O)NC3(CCCc4ccccc43)C2=O)c(Cl)c1 (stereo unspecified)	-29%[46.1 µM]	6%	-7%	·	·	-18%	·	-4%
O=C(NCCc1ccc(Cl)cc1)C(=O)NCC(c1ccco1)S(=O)(=O)c1cccs1 (stereo unspecified)	·	·	?	-1.3%	7%	11%[46.1 µM]	·	·
CCC(=O)Nc1cc(-c2cn3cccnc3n2)ccc1OC	·	·	-9%	-6.5%	-5%	-1%[46.1 µM]	·	·
O=C(CCCn1cncn1)N1CCCC(N2CCN(c3ccc(F)cc3)CC2)C1 (stereo unspecified)	-16%	?	-16%	·	·	-3%	6%	-15%
COCCN1CCN(C(=O)c2ccc3oc(CCc4ccccc4)nc3c2)CC1	11%	2%	30%[activator]	·	·	?	-4%	3%
CCC1Sc2ccc(S(=O)(=O)CCC(=O)Nc3ccccc3Br)cc2NC1=O (stereo unspecified)	·	-4%	-24%	·	·	·	10%	2%
O=C(O)c1cc(-c2ccccc2)nn1Cc1ccccc1	11%[46.1 µM]	·	-2%	-1.6%	-2%	2%[46.1 µM]	·	·
O=C1C(=Cc2cccn2-c2ccc(O)cc2)C(=O)c2ccccc21	15%	0%	-11%	0.5%	-19%	-3%	15%	6%
Cc1cc2ncn(CCC(=O)NC(C)(C)C)c2cc1C	14%[46.1 µM]	20%	-10%	·	·	0%	5%	1%
Cc1c(OC(C)C(=O)NCC(O)c2ccccc2)ccc2c3c(c(=O)oc12)CCCC3 (stereo unspecified)	·	-2%	0%	·	·	·	-32%	4%
Nc1c(-c2ccc3c(c2)OCCO3)oc2ccccc2c1=O	?	-2%	16%	·	·	-20%	6%	-6%
CC1CCC(NC(=O)c2ccc(S(C)(=O)=O)cc2)CC1 (stereo unspecified)	-3%[46.1 µM]	8%	46%[activator]	1.0%	-6%	13%	3%	-5%
COc1cc(/C=C(/C#N)c2nc3ccccc3[nH]2)ccc1OC(=O)c1ccco1	2%	-8%	·	0.9%	-1%	1%	7%	-17%
COc1ccccc1NC(=O)C1=C(C)Nc2nnnn2C1c1ccc(C(F)(F)F)cc1 (stereo unspecified)	-16%[46.1 µM]	·	-1%	-5.3%	29%	16%[46.1 µM]	·	·
O=C(NC1CCCCC1)N1CCCC1	-17%	6%	1%	1.1%	-6%	17%	-1%	6%
CCCCC(=O)O[C@]1(C(=O)CO)CC[C@H]2[C@@H]3CCC4=CC(=O)CC[C@]4(C)[C@H]3[C@@H](O)C[C@@]21C	-26%	1%	-16%	0.7%	?	1%	-4%	-6%
CCN(CC)c1ccc(NC(=O)CC2Oc3ccccc3NC2=O)c(C)c1 (stereo unspecified)	·	-4%	0%	-1.3%	-2%	·	1%	-3%
COc1cccc(OCc2cc(C(=O)N3CCN(c4ccccc4O)CC3)no2)c1	4%[46.1 µM]	-7%	9%	·	·	?	-18%	7%
Cc1oc2ccc(O)c(CN(C)Cc3ccccc3)c2c1C(=O)Nc1cccc(C(F)(F)F)c1	?	·	?	-15%	?	?	·	·
COCC(=O)Nc1ccc2c(c1)OCC(=O)N2Cc1ccc(C)cc1	·	-4%	22%	·	·	·	-5%	29%
Cc1ccc2c(=O)cc(C(=O)Nc3sc4c(c3C(=O)NCC3CCCO3)CCCC4)oc2c1C (stereo unspecified)	1%[46.1 µM]	·	3%	-1.4%	2%	1%[46.1 µM]	·	·
O=C1CC(c2ccccc2F)c2cc3c(cc2N1)CCC3 (stereo unspecified)	?	-14%	?	2.3%	-5%	-11%	-85%	-10%
COc1ccccc1N1CCN(C(CNC(=O)C(=O)NCCCN(C)C)c2cccnc2)CC1 (stereo unspecified)	·	·	-15%	-2.0%	13%	-13%[46.1 µM]	·	·
CCN1C(=O)C(CC(=O)Nc2ccc(OC)cc2)N(CCc2ccccc2F)C1=S (stereo unspecified)	·	-1%	0%	·	·	?	-8%	5%
CCOc1cc(C)c(Cl)cc1S(=O)(=O)NC1CC(C)(C)NC(C)(C)C1	?	3%	62%[activator]	-0.5%	-7%	?	3%	2%
CCC(C)Sc1nc2c(c(=O)n1C)SC(C)C2 (stereo unspecified)	·	-4%	-44%	0.4%	-5%	·	-98%	-13%
Cc1[nH]c(=O)[nH]c(=O)c1S(=O)(=O)N(C)Cc1ccccc1	?	4%	-4%	4.0%	-16%	5%	1%	-9%
O=C(NCc1ccccn1)c1cc(-c2ccc(Br)cc2)nc2ccccc12	?	7%	-21%	-8.2%	?	-5%	15%	·
CN(C(=O)CC1C(=O)NCCN1Cc1ccc(F)c(F)c1)C1CCOCC1 (stereo unspecified)	26%[46.1 µM]	-1%	-4%	·	·	0%[46.1 µM]	3%	3%
CC#CC[N+](C)(C)CCCCCCCCCC	?	-1%	-4%	·	·	?	-49%	-4%
CCNC(=S)N1CCCC(c2nc3ccc(C)cc3[nH]2)C1 (stereo unspecified)	·	1%	8%	·	·	·	-35%	-2%
CN=C(c1ccc(C)cc1)n1c(=S)nc(-c2ccc(C)cc2)n(C)c1=S	-14%[46.1 µM]	-2%	-6%	·	·	17%	-5%	1%
O=C(O)c1cccc(-n2cccc2/C=C2\SC(=O)N(Cc3ccccc3F)C2=O)c1	17%	2%	4%	-22%	17%	-6%	-7%	8%
COC(=O)c1c(NS(C)(=O)=O)sc2c1CCCC2	6%	-4%	-18%	1.9%	-5%	7%	-40%	-12%
S=C(NCc1ccc2c(c1)OCO2)NCc1ccco1	-8%[14.2 µM]	0%	0%	·	·	15%	0%	3%
CC(=O)Nc1cccc(NC(=O)CSc2nn3c(=O)c(C)nnc3s2)c1	·	1%	8%	·	·	·	1%	11%
CC(C)C(=O)NS(=O)(=O)c1ccc(NS(C)(=O)=O)cc1	·	1%	-10%	·	·	·	-4%	5%
Clc1cccc(CNCCc2c[nH]c3ccccc23)c1	?	-2%	4%	·	·	-2%	0%	-14%
N/C(Cn1cncn1)=N\NC(=O)C(=O)Nc1cccc(C(F)(F)F)c1	12%[46.1 µM]	2%	5%	·	·	3%[46.1 µM]	2%	-11%
COc1ccc(-c2noc(CN(C)C(=O)c3ccc4c(c3)OCO4)n2)cc1OC	11%[46.1 µM]	-12%	-13%	·	·	3%	-9%	-2%
O=C(O)c1nn(CCSc2ccccc2F)c(=O)c2ccccc12	·	0%	20%	·	·	·	-5%	-7%
CC(C(=O)O)N1C(=O)/C(=C/C=C/c2ccco2)SC1=S (stereo unspecified)	?	2%	5%	-13%	1%	-12%	?	11%
CCc1ccccc1NC(=O)CSc1n[nH]c(C)c1[N+](=O)[O-]	-4%	12%	31%[activator]	-3.7%	-3%	-6%	-2%	14%
c1ccc(-c2n[nH]nc2-c2ccccc2)cc1	3%	-3%	-19%	1.2%	16%	-1%	-120%	8%
Cc1ccc(N2CC(C(=O)OCC(=O)c3ccc(F)cc3)CC2=O)cc1 (stereo unspecified)	-9%[46.1 µM]	-6%	11%	·	·	-7%[46.1 µM]	-9%	-13%
Cc1ccccc1-n1c(-c2csc3ccccc23)n[nH]c1=S	-19%	-32%	-14%	-24%	-3%	-2%	12%	1%
CC1CCN(S(=O)(=O)c2nnc(NC(=O)COc3ccccc3F)s2)CC1	·	-3%	-16%	·	·	·	-5%	-6%
O=C(COC(=O)/C=C/c1ccc(F)cc1)Nc1ccc2[nH]c(=O)[nH]c2c1	6%	-1%	-14%	·	·	0%[46.1 µM]	·	10%
Cc1cccc(-c2cc(NC(=O)C(C)(C)C)n(-c3ccccc3)n2)c1	·	·	36%[activator]	0.8%	-6%	23%[46.1 µM]	·	·
COc1cccc2cc(C(=O)OCc3ccccc3)c(=O)oc12	2%	-3%	71%[activator]	·	·	17%	-39%	-6%
Cc1cc(C)n(CC(O)COc2ccccc2Br)n1 (stereo unspecified)	·	-1%	19%	·	·	·	-11%	10%
CN=C1C=C/C(=N/N=c2\ccn(O)cc2C)C=C1C	2%	-1%	0%	·	·	?	-9%	-19%
COc1ccc(C(=O)NCc2c(CC(C)C)oc(C)c2C(=O)O)cc1	6%	?	14%	-6.0%	-14%	12%	?	-24%
O=C(CSc1cn[nH]n1)Nc1ccccc1C(F)(F)F	18%[46.1 µM]	-2%	0%	·	·	·	8%	-9%
COc1ccc2cc(C(=O)N3CCc4ccccc43)[nH]c2c1	·	0%	34%[activator]	·	·	·	-12%	2%
COc1ccc(N2CCC(CNC(=S)Nc3cccc(C)c3)C2)cc1 (stereo unspecified)	?	6%	9%	-6.3%	-28%	6%	5%	2%

(further entries)
Structure	MARV entry inh	SARS PLpro yeast	2A StopGo	Cruzain inh Det	Cruzain inh noDet	Lassa entry inh	NS1 inh	RE007 growth inh
CC1CCN(S(=O)(=O)c2ccc(NC(=O)C3CSC4(C)CCC(=O)N34)cc2)CC1 (stereo unspecified)	-17%	-4%	-7%	·	·	-5%	·	-8%
Cc1nn(-c2ccccc2)c(C)c1C(=O)NCc1ccccc1F	1%[46.1 µM]	1%	3%	·	·	-1%	5%	15%
C=CCc1cccc(C=Nc2cccn3cc(-c4ccccc4)nc23)c1O	24%[46.1 µM]	-3%	0%	·	·	?	·	-14%
CCOc1ccc(CC(=O)C2C(=O)CCCC2=O)cc1OCC	6%	2%	-16%	0.2%	1%	15%	5%	2%
O=C(CC(c1ccc(F)cc1)c1ccco1)N1CCCC1 (stereo unspecified)	10%	3%	4%	-21%	?	8%	14%	1%
O=C(CN(C1CCCCC1)S(=O)(=O)c1ccc(F)cc1)Nc1ccc2c(c1)OCO2	0%	-16%	59%[activator]	-6.7%	-26%	6%	-18%	10%
CN(C)c1ccc(C(=O)NC2(N3CCC3=O)CCCC2)cc1	19%[46.1 µM]	0%	0%	·	·	6%[46.1 µM]	1%	-12%
